Source: PubChem (several laboratories)
Sa RN4220 lethal = S. aureus RN4220 growth inhibition; inhibition, % (test concentration not listed); OD600, 16 h; AID 1259311; 330,000 compounds, 0.33% hits;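 active means z-score of -3 or lower and OD600 up to 0.18 on both plates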;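 further: plate controls were untreated cells for no effect and reference antibiotic for full effect; stock transfer was 100 nL into about 80 µL; one replicate is shown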
PrP 5UTR inh = inhibition of PrP 5' UTR reporter expression | cell-based PrP 5' UTR mRNA reporter, plate reader | inhibition, % (concentration not given with the values) | 340,000 compounds, 0.35% hits | AID 488862;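 active means every replicate at 50% or more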;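 further: 0 = median of the neutral control wells; tested in H4 reporter cells; numbers are from one replicate; inactives centre near -14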
ugtP null kill = compounds lethal to S. aureus RN4220 ugtP deletion mutant; OD600 growth, 16 h; some inactives read as strong as hits; growth inhibition, % (concentration not given with the values); 330,000 compounds, 0.54% hits;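 active means z-score under -3 and OD600 up to 0.15 on both plates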;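 further: plate controls were untreated wells for no effect and antibiotic for full effect; wells of about 80 µL received 100 nL stock; the first replicate is given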
Mtb hypoxia rep = reduces hypoxia-regulated biosensor signal in M. tuberculosis; M. tuberculosis hypoxia-regulated fluorescent reporter, fluorescence; fluorescence inhibition, % (test concentration not listed); 300,000 compounds, 0.1% hits;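 active means 35 to 45% if threefold the growth effect, above 45% if 1.5-fold the growth effect; inactive means the rest, general growth blockers included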;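 further: wells of about 50 µL received 100 nL stock; 0% = vehicle wells and 100% = reference inhibitor wells; whole bacteria with a GFP reporter of the hypoxia response; strong numbers were not always called active; many hits fall short of the cut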
Autofluor counter = flagged as autofluorescent in microsphere protease counterscreen. compound autofluorescence counterscreen, microsphere flow cytometry; hits give high values. fluorescence intensity (no concentration beside the values). 360,000 compounds, 3.1% hits. AID 624483;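 active means at least 3 SD above the mean of all compounds, about 16000 in these data; inconclusive means too few beads counted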;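 further: 100 nL of 1 mM stock went into each well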
BJeLR viability = BJeLR cell viability loss | inhibition, % (no concentration beside the values) | 300,000 compounds, 0.17% hits | BJeLR (HRASV12) viability, CellTiter-Glo ATP luminescence, 48 h; reference of the scale not given here | AID 1554;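 active means replicate mean above 50%; inconclusive means above 50% but judged a plate artefact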;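 further: 50 nL library stock added to about 25 µL; numbers are from one replicate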
Mtb hypoxia rep growth = also measured in Mtb hypoxia rep; calls as there; growth inhibition, %; measured here: M. tuberculosis growth (absorbance);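 0% = vehicle and 100% = reference antibiotic; read after six days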
Active calls of the source: *; u = inconclusive; x = no result given.

Start of the data: the first two records, ahead of the listing:
SMILES	Sa RN4220 lethal	PrP 5UTR inh	ugtP null kill	Mtb hypoxia rep	Mtb hypoxia rep growth	Autofluor counter	BJeLR viability
Cc1ccc(C)c2[nH]c(=O)c(CCNC(=O)Cc3cccs3)cc12	5.1	-15	-5	0	-1	6034	-1
CCCOC(=O)C1NC(=O)N2C(C(=O)OCCC)C(C)(C)S[C@H]12 (some centres undefined)	x	-10	x	x	x	3531	-11

The listing (from the top)
SMILES	Sa RN4220 lethal	PrP 5UTR inh	ugtP null kill	Mtb hypoxia rep	Mtb hypoxia rep growth	Autofluor counter	BJeLR viability
Cc1ccc(C)c2[nH]c(=O)c(CCNC(=O)Cc3cccs3)cc12	5.1	-15	-5	0	-1	6034	-1
CCCOC(=O)C1NC(=O)N2C(C(=O)OCCC)C(C)(C)S[C@H]12 (some centres undefined)	x	-10	x	x	x	3531	-11
COc1ccc(C(=O)Nc2ccc(NS(=O)(=O)c3ccccc3)cc2)cc1OC	1.8	40	16	-5	-2	3750	-7
COc1cc2c(c(OC)c1OC)-c1ccc(O)cc1[C@@H](NC(C)=O)CC2	x	68*	x	x	x	3065	32
CCOP(=O)(OCC)C(Nc1ccc([N+](=O)[O-])cc1)c1ccc(Cl)cc1 (centres undefined)	-1.1	-2	1	2	0	4280	11
COc1ccc(OCC(=O)Nc2ccc(S(=O)(=O)Nc3cc(C)nc(C)n3)cc2)cc1	4.5	-3	-1	11	2	3327	10
O=C(NCCCCc1ccccc1)c1ccc(Br)o1	7.3	6	6	16	9	9639	-6
Cc1nn(-c2ccccc2)c(Cl)c1/C=N/NC(=O)OC(C)(C)C	x	-94	x	x	x	10248	0
CC1CN(C(=O)c2cccs2)CC(C)O1 (centres undefined)	9.7	-25	2	13	3	4437	2
CCCCNC(=O)c1cc(C)nn1-c1ccccc1	3.4	-7	17	10	-8	3598	2

Whole records from above. Order of screens: Sa RN4220 lethal	PrP 5UTR inh	ugtP null kill	Mtb hypoxia rep	Mtb hypoxia rep growth	Autofluor counter	BJeLR viability
`Cc1ccc(C)c2[nH]c(=O)c(CCNC(=O)Cc3cccs3)cc12` reads 5.1	-15	-5	0	-1	6034	-1
`COc1ccc(OCC(=O)Nc2ccc(S(=O)(=O)Nc3cc(C)nc(C)n3)cc2)cc1` reads 4.5	-3	-1	11	2	3327	10
`CCCCNC(=O)c1cc(C)nn1-c1ccccc1` reads 3.4	-7	17	10	-8	3598	2

Going on with the list.
SMILES	Sa RN4220 lethal	PrP 5UTR inh	ugtP null kill	Mtb hypoxia rep	Mtb hypoxia rep growth	Autofluor counter	BJeLR viability
O=C(NC1=C(Nc2ccc(F)cc2)C(=O)c2ccccc2C1=O)c1ccc(Cl)cc1	77	-28	74	-17	0	2095	-14
CC(C)(C)C(=O)Nc1ccccc1C(=O)NCCCn1ccnc1	0.8	-17	-7	1	12	4616	-6
COC(=O)[C@]1(Cc2ccccc2)N[C@H](CN(C)C(=O)Nc2ccc(Cl)cc2)[C@@H]2C(=O)N(Cc3ccccc3)C(=O)[C@@H]21	-2.6	-18	-19	-6	-1	3822	x
CCc1sc(C(=O)NC)cc1Br	7.8	8	-2	17	6	20040*	11
CCC(C)NC(=O)C1CCN(S(=O)(=O)c2ccc3[nH]c(=O)ccc3c2)CC1 (centres undefined)	-1.9	-21	-2	x	x	4401	-7
Cc1ccc(S(=O)(=O)NNC(=O)c2sc(NS(=O)(=O)c3ccccc3)nc2C)cc1	0.2	-10	3	14	3	5453	-1
OCc1ccccc1OCCOc1ccc(Cl)c2cccnc12	7.3	-37	-19	11	4	15818	-1
CN(C)S(=O)(=O)c1cccc(NC(=O)c2cc(=O)[nH]c3ccccc23)c1	6.4	-22	-4	17	3	2246	-6
O=C(CN1CCN(Cc2ccccc2)CC1)NN=C/C=C/c1ccccc1[N+](=O)[O-]	2.1	x	8	5	-2	x	x
O=c1c2ccccc2nc2ccc(NCc3cccs3)nn12	2.9	-60	5	12	12	4868	-4
O=C(COC(=O)c1ccc(-c2nnc(-c3ccccc3)o2)cc1)c1ccccc1	1.6	-47	0	10	13	2263	-8
Cc1ccc2[nH]c(=O)c(C(c3nnnn3Cc3ccccc3)N3CCc4ccccc43)cc2c1 (centres undefined)	21	-6	-9	-9	7	10065	0
COc1ccc(NC(=O)C2CCCN2S(=O)(=O)c2ccc3c(c2)CC(C)N3C(C)=O)cc1OC (centres undefined)	3.8	-7	1	1	8	6233	-5
CCc1sc(C(=O)Nc2nc(C)cs2)cc1C	2.1	-103	-2	-5	8	6165	-8
COc1cc(S(=O)(=O)N2CCOCC2)ccc1NC(=O)COC(=O)c1cc(OC)c(OC)c(OC)c1	2.5	-19	0	0	0	4256	x
O=C(NN1C(=O)c2ccccc2NC1c1ccc([N+](=O)[O-])o1)c1ccc(Br)cc1 (centres undefined)	10	-28	1	-14	1	4328	-7
CCCC1OC23CCCCC2C(C#N)(C#N)C1(C#N)C(=N)O3 (centres undefined)	4.5	-37	8	8	7	11471	-10
Cn1cc(/C=C(\NC(=O)c2ccccc2)C(=O)N2CCOCC2)c2ccccc21	0.8	-19	1	4	-10	4969	5
O=S(=O)(Nc1c(F)cccc1F)c1ccc(Cl)nc1	5.0	-7	2	2	-6	u	6
Cc1nn(C)c(Cl)c1CN1CCCC(CCC(=O)NCc2ccccc2F)C1 (centres undefined)	7.4	-19	8	2	-9	4817	7
COC(=O)c1ccc(Nc2cc(C)nc(-c3ccccc3O)n2)cc1	-1.4	-8	14	-7	-7	2706	-3
Cc1ccc(NC(=O)c2ccc3c(c2)OCO3)cc1Cl	6.4	-38	8	13	2	3817	-4
CCc1cc(Br)ccc1NC(=S)NCCc1ccccc1	4.0	-5	-16	-2	9	5573	x
O=C(O)CC(Cc1ccc(Cl)cc1)C(=O)NCc1ccccc1 (centres undefined)	3.6	-15	4	2	14	2474	-3
COc1cc(C2CC(=O)N(CC(=O)NCC3CCCO3)c3ccccc3S2)cc(OC)c1OC (centres undefined)	5.0	-14	3	1	-4	2706	-6
O=C(CCC(=O)N1CCOc2ccccc21)Nc1ccccc1Cl	-7.4	-7	-1	10	6	5920	-2
COc1ccc(C2=CC(=O)C[C@H](c3ccc4c(c3)OCO4)C2)cc1	-5.8	-25	2	0	10	3377	x
Cn1c(=O)n(C)c2cc(NC(=O)CSc3nc4ccccc4c(=O)[nH]3)ccc21	0.4	-20	7	5	9	3983	-5
CCCC(C(=O)NC(C)(C)C)N(C(=O)c1snc(C(N)=O)c1N)c1ccc2c(c1)OCCO2 (centres undefined)	7.0	-4	7	-8	1	4111	-7
O=C(CC(c1ccccc1)c1ccccc1O)NCCc1ccccc1 (centres undefined)	4.4	-4	9	8	0	2944	1
O=S(=O)(NCc1c(Cl)cccc1Oc1ccccc1)c1ccccc1	5.1	-21	-12	-5	-3	4356	1
COc1ccc(C2=NCCn3c2c2ccc(C(F)(F)F)cc2[n+]3[O-])cc1	22	-14	11	x	x	2898	-6
CC1CCCC(NC(=O)C2CCN(S(=O)(=O)N3CCC4(CC3)OCCO4)CC2)C1C (centres undefined)	2.1	-127	-1	-4	5	8033	1
CCOC(=O)C1CCN(C(=O)CSc2cc(=O)n(CC)c3ccccc23)CC1	2.8	-4	5	-2	-1	16952*	10
CS(=O)(=O)N1CCN(C(=O)Cc2ccc([N+](=O)[O-])cc2)CC1	1.5	-11	6	-9	-9	x	3
Cc1nc2ccc(C(=O)N/N=C/c3cc([N+](=O)[O-])ccc3O)cc2[nH]1	x	-6	x	x	x	2483	-1
CC1CCN(C(=O)c2ccc(COc3ccccc3Cl)o2)CC1	13	77*	4	2	0	3315	-7
Cc1ccc(N2C(=O)C3C(c4ccccc4)N4CCCN4C3(C)C2=O)cc1 (centres undefined)	3.3	-19	-4	8	7	2419	-3
Cc1cc(Nc2ccc(Cl)cc2)nc(NCc2ccccc2)n1	65	-10	49	-6	9	2760	3
CCC(C)C(NC(=O)OC(C)(C)C)c1cn(C(Cc2ccc(O)cc2)C(=O)N2CCN(C(=O)OC(C)(C)C)CC2)nn1 (centres undefined)	5.1	x	-10	0	3	x	x
COC(=O)c1cc(NC(=O)CN(c2ccc3c(c2)OCO3)S(C)(=O)=O)ccc1Cl	4.6	11	-14	5	2	3407	0
COc1ccccc1NC(=O)C1CCCN(S(=O)(=O)c2ccc3[nH]c(=O)ccc3c2)C1 (centres undefined)	6.8	-21	11	x	x	5507	-4
O=C(CNS(=O)(=O)c1ccccc1)N/N=C\c1ccc(Cl)cc1	x	-8	x	x	x	2001	2
COc1ccc(-c2ccc3oc(-c4ccsc4)cc(=O)c3c2)cc1F	11	-14	-38	5	5	3949	x
O=C(/C=C/c1ccc2c(c1)OCO2)NCc1ccncc1	-1.7	-4	-6	-1	6	3910	-12
OCC[C@@H]1C[C@@H](O)[C@H](O)[C@]2(CCc3ccccc3O2)O1	x	-29	x	x	x	2889	-2
COc1ccc(S(=O)(=O)N2CCCCCC2)cc1C(=O)OCc1c(C)noc1C	1.9	-3	1	10	-6	5067	x
COc1ccc(S(=O)(=O)N2CCN(C3CCN(Cc4ccccc4)CC3)CC2)cc1	1.0	-11	4	x	x	4815	-3
O=S(=O)(c1ccccc1)N1CCN(S(=O)(=O)N2CCCCC2)CC1	-0.9	-2	-1	-2	-7	8769	-11
NS(=O)(=O)c1ccc(CCNC(=O)CSc2ccc(Cl)cc2Cl)cc1	5.2	-10	13	10	8	4765	-1

New compounds follow
SMILES	Sa RN4220 lethal	PrP 5UTR inh	ugtP null kill	Mtb hypoxia rep	Mtb hypoxia rep growth	Autofluor counter	BJeLR viability
CC(C)CCNC(=O)C(=O)Nc1ccccc1	x	-81	x	x	x	3192	-2
Cn1c(=O)n(C)c2cc([N+](=O)[O-])c(N3CCN(C(=O)c4ccc(Cl)cc4)CC3)cc21	-2.4	0	-4	-7	6	9747	5
CCOC(=O)c1ccc(NC(=O)NC(C)C2CCCO2)cc1 (centres undefined)	3.6	-17	-3	3	0	21999*	-15
COc1ccc(S(=O)(=O)N2CCCN(CC(=O)C(C)(C)C)CC2)cc1	0.2	-10	-1	x	x	2802	-1
Cc1coc2c1c(C)cc1oc(=O)c(CC(=O)NCC(=O)N[C@H](C(=O)O)C(C)C)c(C)c12	-0.5	-21	7	5	-1	3133	-10
CCCCC(=O)NNC(=S)NC(=O)CCC	25	1	2	x	x	4132	-9
O=S(=O)(c1c(F)cccc1F)C1CCN(S(=O)(=O)c2ccc3c(c2)OCCO3)CC1	3.4	0	-2	3	5	3812	x
O=C1C=C(N2CCCCCC2)C(=O)N1c1ccc(Cl)cc1	-0.6	x	6	0	-2	3732	2
COc1cc(C=O)ccc1OC(=O)c1ccncc1	1.5	-11	4	-4	-1	2401	2
CC(=NNC(=O)c1ccc([N+](=O)[O-])cc1Cl)c1ccccc1	-0.5	x	1	-5	-6	x	x
CC(=O)c1ccccc1OC(=O)c1c(F)cccc1F	1.6	-24	-12	-2	9	5644	0
O=C(O)c1ccccc1C(=O)NNc1ccc(Cl)cc1	5.3	-37	5	21	20	3851	-1
O=C(C(=CO)N=Nc1ccccc1Cl)c1ccccc1	12	x	7	2	6	x	x
Cc1[nH]nc(SCC(=O)N2CCC(C)CC2)c1[N+](=O)[O-]	2.9	-30	-1	7	6	8909	-6
O=C(O)C1(P(=O)(c2ccc(Cl)cc2)c2ccc(Cl)cc2)CCCC1	2.4	-12	4	17	-1	2619	-1
C=CCSc1nc2c(c(=O)[nH]c(=O)n2C)n1Cc1ccc(C)cc1	-10	5	-2	4	10	6270	-4
CC(O)c1cccc(NC(=O)C2CCCCC2)c1 (centres undefined)	6.9	-45	14	11	5	4453	-3
Cc1ccc(NC(=S)N(CCCN2CCCC2)Cc2cccn2Cc2ccc(Cl)cc2)cc1C	-1.2	-19	-8	18	6	4252	26
COC(=O)c1ccc(NC(=O)CN2C(=O)CSC2=O)cc1	-1.2	-13	-6	3	4	3231	9
Nc1ccc(CN2CCCCCC2)cc1	4.8	-18	6	4	1	3798	2
Cc1cc(=O)oc2c(C)c(OCC(=O)N3CCN(c4ccccc4)CC3)ccc12	-0.5	-17	2	6	5	5088	1
COC(=O)N1[C@H](C)C=C[C@]1(Cc1ccccc1)C(=O)OC	x	-18	x	x	x	3502	4
CCOC(=O)c1c(NC(=O)CSc2nnc(Cc3ccccc3)o2)sc(C(C)=O)c1C	13	-14	35	10	5	18103*	18
CC(C)c1ccc2c(c1)C1(NN=C(c3ccccc3)S1)C(=O)N2 (centres undefined)	94*	24	98*	-3	-2	2768	16
